High-throughput results deposited in PubChem by National Center for Advancing Translational Sciences (NCATS).
Sfp PPTase inh = qHTS Assay for Inhibitors of Bacillus subtilis Sfp phosphopantetheinyl transferase (PPTase). 4'-phosphopantetheinyl transferase ffp (Bacillus subtilis), Q9F4F7. Biochemical Sfp PPTase activity, qHTS. Potency, µM, for the others: max response, negative = inhibition, usual class: inhibitors. 310,000 tested, 3.5% active. AID 1490, 2009; active = well fitted inhibition curve with a large enough effect; inconclusive = small, poorly fitted or top-dose-only effect, or another doubt; inactive = no such curve, though single readings can be large or run the other way;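 also: the enzyme is Sfp with the accession as filed and its product quenches rhodamine fluorescence; potency is read from the fitted curve at half-maximal effect; 0% = enzyme reaction without inhibitor and -100% = no enzyme wells; top concentration of the series not given in the record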
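Step 1, compound plus 15 nM Sfp-PPTase, 15 min, room temperature. Step 2, add rhodamine-CoA (5 uM) and BHQ-2-YbbR (12.5 uM). Step 3, read 525/598 nm fluorescence at 0 and 30 min.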
Six1-Eya2 blk = qHTS Assay for Inhibitors of the Six1/Eya2 Interaction. activity change, % (test concentration not listed). Homeobox protein SIX1 (Homo sapiens) + Protein phosphatase EYA2 (Homo sapiens), …. AID 651725, 2012. AlphaScreen GST-Six1/His-Eya2 binding, biochemical; active compounds read low; control for the full effect not named in the record. 360,000 tested, 0.56% active; in the data active = activity change below about -65%; inconclusive = about -30% to -65%; inactive = above about -30%; also: % is scaled to controls: 0 for no effect and ±100 for the full control effect
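Homogeneous AlphaScreen proximity assay pairing GST-Six1 with His-tagged Eya2 (added as 5X mix: 250 nM and 500 nM) in 50 mM Tris pH 8.0, 300 mM NaCl, 1 mM TCEP. Glutathione donor and nickel acceptor beads; 1 h, 37 °C, dark.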
PINK1 expr mod = A Quantitative High throughput Screen to Identify Chemical Modulators of PINK1 Expression. PINK1 immunofluorescence, high-content cytometry, 24 h. 410,000 tested, 0.2% active. Potency, µM (series often up to 76.6 µM), for inactives: at the top dose activation (PINK1 increase), usual class: activators; active = well fitted activation curve with a large enough effect; inconclusive = small, poorly fitted or top-dose-only effect; inactive = flat fitted curve, though single readings scatter; cell line not stated here;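 also: potency is read from the fitted curve at half-maximal effect; % of control where 0% means no effect; nearly all actives have a fitted effect of over 65% in size; a mitochondrial uncoupler was the plate control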
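Stable cell line, 250 cells/well, 12 h attachment; compounds pinned at 5 concentrations, 24 h; CCCP control. Fixed with nuclear dye, primary antibodies 12 h at 10 degrees C, secondary plus cell stain; laser-scanning cytometer read.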
D2 potentiator = Beta-Arrestin HTS for Positive Allosteric Modulators of the Human D2 Dopamine Receptor: Potentiators | D(2) dopamine receptor (Homo sapiens), P14416 | DiscoveRx D2 beta-arrestin cells, luminescence, 90 min; 100% = 57 uM dopamine signal | potentiation, % (test concentration not listed) | 360,000 tested, 0.23% active | AID 624464, 2012; active = potentiation of 50% or more; inconclusive = 30% to 50%; inactive = 30% or less;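 also: compound concentration not given in the record; tested on top of an EC20 dose of dopamine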
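PathHunter D2 cells, attached overnight at 37 deg C, received compound in DMSO plus dopamine at EC20 (50 nM final) for 90 min at 37 deg C. Beta-arrestin recruitment was read as luminescence after 1 h with detection reagent at ambient temperature.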
TRPV1 potentiator = HTS Assay for Compounds that Act as Potentiators of the Vanilloid Receptor 1; TRPV1-expressing cells, Fluo-8 calcium influx, capsaicin EC20 potentiation; host cell line not named in the record; control for the full effect not named in the record; potentiation, % at 8.33 µM; 320,000 tested, 0.02% active; AID 540277, 2011; active means potentiation above 80%; inconclusive means 30% to 80%; inactive means below 30%; also: 0% is about no effect
Target sequence (Q8NER1 whole entry, looked up): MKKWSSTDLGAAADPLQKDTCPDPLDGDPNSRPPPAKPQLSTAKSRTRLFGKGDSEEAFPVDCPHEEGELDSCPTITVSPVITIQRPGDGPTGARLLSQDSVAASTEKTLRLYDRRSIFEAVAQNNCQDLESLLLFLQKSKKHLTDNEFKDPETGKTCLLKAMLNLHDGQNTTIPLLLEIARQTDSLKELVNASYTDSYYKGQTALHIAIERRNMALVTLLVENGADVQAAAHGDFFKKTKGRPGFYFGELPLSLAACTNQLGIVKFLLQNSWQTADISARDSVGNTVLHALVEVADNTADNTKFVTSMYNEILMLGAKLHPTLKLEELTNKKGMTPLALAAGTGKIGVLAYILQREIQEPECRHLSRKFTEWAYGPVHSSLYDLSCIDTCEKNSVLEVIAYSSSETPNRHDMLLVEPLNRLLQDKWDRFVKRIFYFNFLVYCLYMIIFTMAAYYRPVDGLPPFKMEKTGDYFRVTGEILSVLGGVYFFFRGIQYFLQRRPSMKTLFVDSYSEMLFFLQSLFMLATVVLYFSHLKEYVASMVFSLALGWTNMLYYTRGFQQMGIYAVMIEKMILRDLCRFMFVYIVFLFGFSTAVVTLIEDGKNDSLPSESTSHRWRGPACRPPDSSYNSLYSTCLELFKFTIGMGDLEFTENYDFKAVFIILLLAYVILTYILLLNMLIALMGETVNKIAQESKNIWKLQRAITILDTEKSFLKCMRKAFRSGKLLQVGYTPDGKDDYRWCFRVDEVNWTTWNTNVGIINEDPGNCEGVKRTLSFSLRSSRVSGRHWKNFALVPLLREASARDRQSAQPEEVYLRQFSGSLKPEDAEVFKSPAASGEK
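Cells expressing TRPV1 were dye-loaded with Fluo-8 and read kinetically: 10 s baseline, 3 min after compound (agonist portion), then 2 min after EC20 capsaicin (allosteric enhancer portion). Calcium-bound dye fluorescence at 480/520 nm.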
CtBP-E1A inh = qHTS Assay for Inhibitors of the CtBP/E1A Interaction; CtBP / adenovirus E1A interaction (AlphaScreen); AlphaScreen GST-E1A/His-CtBP binding, 1536-well; active compounds read low; control for the full effect not named in the record; activity change, % (no concentration beside the values); 340,000 tested, 0.49% active; in the data active means activity change below about -65%; inconclusive means about -30% to -65%; inactive means above about -30%; also: % is scaled to controls: 0 for no effect and ±100 for the full control effect
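In 5 uL wells, 23 nL compound meets equimolar GST-E1A and His-CtBP (5X stock 125 nM each) for 2 h, 37 °C. Beads (5X, 50 ug/mL) then 1 h, 37 °C, dark.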
D2 agonist = Beta-Arrestin HTS for Positive Allosteric Modulators of the Human D2 Dopamine Receptor: Agonists; D(2) dopamine receptor (Homo sapiens), P14416; DiscoveRx PathHunter D2 beta-arrestin, luminescence, 90 min; 100% = 57 uM dopamine signal; activation, % (concentration not given with the values); 360,000 tested, 0.084% active; in the data active = activation above about 40%; inconclusive = about 15% to 40%; inactive = below about 15%; also: compound concentration not given in the record; the text of the record calls up to 30% inactive
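DiscoveRx PathHunter D2 beta-arrestin cells (2,100/well) attached overnight, then compound-stimulated 90 min at 37 C in HBSS/10 mM HEPES/0.1% Tween-20 buffer; beta-galactosidase complementation read by luminescence after 1 h at ambient temperature. Dopamine 57 uM final (EC100) as control.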
Active calls of the source: *; ? = inconclusive; . = no result given; & = joins results of further samples; [ ] = another dose, or the depositor's remark.

SMILES	Sfp PPTase inh	Six1-Eya2 blk	PINK1 expr mod	D2 potentiator	TRPV1 potentiator	CtBP-E1A inh	D2 agonist
CCN(CC)c1ccc(NC(=O)c2cnccn2)cc1S(=O)(=O)Nc1ccc(OC)cc1	-1%	-8	8.0%	17	20	-6	-0.2
COc1ccc(Nc2sc(C(=O)c3ccc(Cl)cc3)c(N)c2C(=O)Nc2ccccc2OC)cc1	-9%	-26	16µM*	14	8	-17	-2.8
Cn1c(CCNC(=O)C2CCCCC2)nc2cc([N+](=O)[O-])ccc21	-8%	8	1.4%	-10	4	5	-0.4
Nc1ncnc(N(c2ccccc2)C2CCCCC2)c1[N+](=O)[O-]	10%	1	7.7%[38.3 µM]	-3	19	3	-0.6
CC(NC(=O)COC(=O)CCc1nc(=O)c2ccccc2n1C)c1ccccc1 (stereo not given)	12%	3	0.1%	-4	4	5	?
COc1cc(C=O)ccc1Oc1nnnn1-c1ccccc1	-6%	8	2.8%	-6	-18	-1	0.9
Cn1c2ccccc2c(=O)c2c(=O)n(-c3ccc(F)cc3)c(-c3cccs3)nc21	-4%	3	2.7%	-8	-1	6	-1.5
CC(=O)Nc1ccc(/C=C(\C#N)C(=O)NC2CCCCC2)cc1	35%[activator]	-2	5.4%	6	18	1	1.8
Cc1[nH]n(-c2ccc([N+](=O)[O-])cc2)c(=O)c1C=NCCN1CCN(C(=O)c2ccc(Br)cc2)CC1	21%	-3	-3.6%	-37	2	-13	-1.9
O=C(Nc1nc2ccccc2n1CCN1CCOCC1)c1ccc(Cn2cc([N+](=O)[O-])cn2)o1	4%	1	-0.3%	-10	-6	-5	-4.3
COc1ccc([N+](=O)[O-])cc1NC(=O)C1CCCNC1=O (stereo not given)	8%	-7	0.3%	1	-3	-7	-1.5
O=C(COC(=O)c1ccc2ccccc2c1O)NCC(F)(F)F	9%	-7	6.7%	-4	-19	-17	5.2
O=C(C1CCN(c2ncnc3c2sc2cccc(F)c23)CC1)N1CCOCC1	21%	-7	1.4%	-4	-32	-2	-0.5
CCC(C)(C(=O)NC1CCCC1)N(C(=O)CNC(C)=O)c1ccccc1 (stereo not given)	10%	0	2.1%	17	-2	-1	-3.3
CCCn1c(/C=C/c2cc[n+](C)cc2)nc2ccccc21	7%	5	-0.2%	-3	7	10	9.3
CC(=O)N1CC=CC1(CC(C)C)C(=O)NCCc1c[nH]c2ccccc12 (stereo not given)	12%&3%	-24	-1.5%	-3	2	8	3.0
O=C(CSc1nc(-c2ccc(F)cc2)cc(C(F)(F)F)n1)NCc1cccs1	-15%	2	14%	-20	-16	1	-3.9
Cc1ccc(SCCCCN2C(=O)NC(C)(C)C2=O)cc1	10%	4	-2.1%[38.3 µM]	1	-20	5	0.8
COc1ccc(C(=O)NC(=S)Nc2ccc(N3CCCC3)cc2)cc1	9%	-20	-0.9%	-2	0	-13	6.4
COc1ccc2nc(C)c3cc(C)oc3c2c1	4%	16	-0.7%	-4	-10	0	-3.9
COC(=O)CCC(=O)OC1(C)C(=O)C2=CN(Cc3ccccc3)C(c3ccc(OC)cc3)=CC2=C(Br)C1=O (stereo not given)	13%	-15	2.5%	-3	.	-14	12
CCCOc1ccc(C2/C(=C(/O)c3ccccc3)C(=O)C(=O)N2CCCN(C)C)cc1OC (stereo not given)	.	-1	-1.0%	-2	.	2	-4.6
CCn1cc(C(=O)O)c(=O)c2cc(S(=O)(=O)N(C)C)ccc21	-7%	7	4.8%[38.3 µM]	-1	-28	7	-1.5
CCS(=O)(=O)N1CCC(C(=O)NCCC2=CCCCC2)CC1	-4%	5	4.8%[38.3 µM]	3	5	2	4.0
Cc1ccc(COC(=O)c2cc(S(=O)(=O)N3CCCCC3)ccc2N2CCOCC2)cc1	.	4	1.5%	-3	12	1	0.2
CCc1nnc(NC(=O)[C@@H](NC(=O)c2cccc(S(=O)(=O)N(CC)CC)c2)C(C)C)s1	11%	-5	5.3%[38.3 µM]	-1	2	4	-3.5
COc1ccc(-c2csc(Nc3cccc(C)n3)n2)cc1OC	.	-19	1.0%	-10	.	-1	-0.4
O=C(Nc1cccc(S(=O)(=O)N2CCOCC2)c1)C1CC1	.	-3	1.7%	0	.	.	7.7
CN(C)C(=O)c1ccc(NC(=O)COC(=O)c2cc(S(=O)(=O)N(C)C)ccc2N2CCCC2)cc1	.	-1	-0.4%	-2	2	-15	-4.3
COC(=O)C1C2C=CC3(CN(C(C)C)C(=O)C13)O2 (stereo not given)	7%	19	-3.6%	-1	.	5	-0.2
N#Cc1ccc(OCC(=O)NCC2(N3CCCCC3)CCCCC2)cc1	18%	12	0.7%	-1	4	4	-4.8
COc1ccc(/C=N/NC(=O)c2ccc(COc3cccc4cccnc34)cc2)cc1O	23%	?	1.5%	4	8	?	0.1
CC(C)Oc1ccc(C(=O)N/N=C/c2ccc(-c3ccc(S(=O)(=O)Nc4ncccn4)cc3)o2)cc1	79µM*	-29	-0.1%	9	-33	-13	-1.1
Cc1ccc(C(CCN(Cc2ccccc2)C(=O)c2ccco2)c2ccco2)cc1 (stereo not given)	40µM*	-20	1.7%	-7	-6	2	0.8
Cc1ccccc1-c1nc(NCC2CC2)nc2ccsc12	.	12	8.1%	-4	.	32	-4.7
CSc1ccccc1NC(=S)Nc1ccccc1C(F)(F)F	9%	1	2.4%	-24	13	-14	-3.3
Cc1cc2cccc(C)c2nc1SCC(=O)NNC(=O)c1ccco1	-2%	-3	3.0%	-2	0	3	-4.3
CCC[N+]1(CC#CC2(O)CCCCC2)CCOCC1	11%	1	1.6%	-2	3	.	-4.7
COc1ccc(-c2nc3ccccc3c(=O)o2)cc1OC	6%	-28	-3.5%	-12	22	?	-3.4
Nc1c(C(=O)NCc2cccs2)nnn1CC(=O)Nc1cccc(Cl)c1	15%	2	7.6%	-10	6	0	-0.7
COc1ccc(C=O)cc1Cn1ccnc1	2%	-18	3.8%	-4	2	.	-5.9
Cn1c(CCCOc2ccc(Cl)cc2Cl)nnc1SCC(=O)Nc1nccs1	7%	2	13µM*	0	15	0	2.1
COc1ccc(C2CC(=O)Oc3c(C(C)C)ccc(C)c32)cc1 (stereo not given)	7%	15	7.9%	-7	.	-1	-6.8
COC(=O)c1cc2ccsc2n1Cc1ccccc1F	?	22	23%	9	?	2	3.9
O=C(Nc1ccc(F)c(Cl)c1)c1cc(C2CCCCN2C(=O)c2cccs2)on1 (stereo not given)	.	1	1.2%	-5	.	-23	4.9
COc1cc(CCC(=O)N2CCN(c3ccccc3)CC2)cc(OC)c1OC	29%	-13	3.2%	-8	-1	0	-4.6
Cc1occc1C(=O)Nc1sccc1C(N)=O	1%	-17	-0.9%	0	3	-20	2.6
CCOc1ncccc1C(=O)Nc1nnc(C2CC2)s1	5%	-1	1.1%	-23	-1	-1	0.3
CN1CCN(CCC(=O)Nc2ccccc2Cl)CC1	17%	5	-0.9%	-8	4	7	-4.7

Filtered by structure, those above with bromine (2)
SMILES	Sfp PPTase inh	Six1-Eya2 blk	PINK1 expr mod	D2 potentiator	TRPV1 potentiator	CtBP-E1A inh	D2 agonist
Cc1[nH]n(-c2ccc([N+](=O)[O-])cc2)c(=O)c1C=NCCN1CCN(C(=O)c2ccc(Br)cc2)CC1	21%	-3	-3.6%	-37	2	-13	-1.9
COC(=O)CCC(=O)OC1(C)C(=O)C2=CN(Cc3ccccc3)C(c3ccc(OC)cc3)=CC2=C(Br)C1=O (stereo not given)	13%	-15	2.5%	-3	.	-14	12

Among those listed so far, these have fluorine.
SMILES	Sfp PPTase inh	Six1-Eya2 blk	PINK1 expr mod	D2 potentiator	TRPV1 potentiator	CtBP-E1A inh	D2 agonist
Cn1c2ccccc2c(=O)c2c(=O)n(-c3ccc(F)cc3)c(-c3cccs3)nc21	-4%	3	2.7%	-8	-1	6	-1.5
O=C(COC(=O)c1ccc2ccccc2c1O)NCC(F)(F)F	9%	-7	6.7%	-4	-19	-17	5.2
O=C(C1CCN(c2ncnc3c2sc2cccc(F)c23)CC1)N1CCOCC1	21%	-7	1.4%	-4	-32	-2	-0.5
O=C(CSc1nc(-c2ccc(F)cc2)cc(C(F)(F)F)n1)NCc1cccs1	-15%	2	14%	-20	-16	1	-3.9
CSc1ccccc1NC(=S)Nc1ccccc1C(F)(F)F	9%	1	2.4%	-24	13	-14	-3.3
COC(=O)c1cc2ccsc2n1Cc1ccccc1F	?	22	23%	9	?	2	3.9
O=C(Nc1ccc(F)c(Cl)c1)c1cc(C2CCCCN2C(=O)c2cccs2)on1 (stereo not given)	.	1	1.2%	-5	.	-23	4.9
